GIV-Gai inh: inhibitors of GIV GBA-motif binding to rat Galpha-i3; P08753; Galpha-i3/FITC-GIV peptide fluorescence polarization, 90 min; hits give low values; scaled: aluminum fluoride 0%, vehicle 100%; percent of control (FP), % (concentration not given with the values); actives 0.42% (n = 210,000); AID 1224905;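 active means replicate mean at 85% of control or lower, very high polarization wells dropped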;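 further: wells of about 15 µL received 100 nL stock; the first replicate is given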
Target sequence (P08753 whole entry, looked up): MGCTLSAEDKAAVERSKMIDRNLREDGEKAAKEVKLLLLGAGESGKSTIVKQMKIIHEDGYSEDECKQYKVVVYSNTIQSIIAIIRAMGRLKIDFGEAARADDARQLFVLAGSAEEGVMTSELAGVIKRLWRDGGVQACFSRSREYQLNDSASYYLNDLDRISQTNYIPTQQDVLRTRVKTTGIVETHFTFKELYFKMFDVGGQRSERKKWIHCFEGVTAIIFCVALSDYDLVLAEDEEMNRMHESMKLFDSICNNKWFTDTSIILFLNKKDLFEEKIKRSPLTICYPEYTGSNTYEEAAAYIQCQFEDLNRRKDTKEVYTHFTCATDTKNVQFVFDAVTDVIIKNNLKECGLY
Active calls of the source: *. Only part of the results is shown; rates above refer to the full screens.

SMILES	GIV-Gai inh
COc1cccc(CN2CCCC2c2c(C)noc2C)c1O (configuration not stated)	101
Cc1ccccc1CN1CCCN(c2cccc(C(=O)NCc3ccccn3)c2)C1=O	97
CCOCC(=O)Nc1ccc(-c2cn3c(C(=O)N(C)C)csc3n2)cc1	100
CC(=O)N1c2ccccc2-c2c(ssc2=S)C1(C)C	106
Cc1ccc(N2C(=O)C3C4c5ccccc5C(CO)(c5ccccc54)C3C2=O)cc1 (configuration not stated)	110
CC(C)(C)c1csc(NC(=O)c2ccc(S(=O)(=O)N3CCOCC3)cc2)n1	103
CCCCc1nc2c3ccccc3n(CC(=O)c3c(C)[nH]c4ccccc34)c(=O)n2n1	100
CC(C)(C)c1ccc(S(=O)(=O)Nc2cccc(-c3nnc(-c4ccccc4)o3)c2)cc1	102
COc1ccc(/C=C2\C=C(c3ccccc3)N(c3cccc(Br)c3)C2=O)cc1Br	101
O=C(C1=CN(c2cc(F)cc(F)c2)c2cc(F)ccc2S1(=O)=O)N1CCOCC1	96
CS(=O)(=O)Nc1ccc(C2(C(=O)N3CCCC3)CCCCC2)cc1	97
Cc1cccc(N2CCN(S(=O)(=O)c3cccc4nonc34)CC2C)c1 (configuration not stated)	114
CC(C)CN1C(=O)/C(=C/c2cn(-c3ccccc3)nc2-c2ccc(S(=O)(=O)N(C)C)cc2)SC1=S	126
COCCNC(=O)C1CCN(Cc2noc(-c3ccc(F)cc3)n2)CC1	104
COc1cc(OC)c(-c2nc(-c3ccccc3)c(-c3ccccc3)[nH]2)cc1OC	105
CCOC(=O)c1c(NC(=O)c2c(-c3ccccc3Cl)noc2C)sc2c1CCCC2	103
COc1ccc(-n2c(-c3ccc(Br)cc3)cn3c4c(=O)n(C)c(=O)n(C)c4nc23)cc1	100
COc1ccc(/C(O)=C2\C(=N)N(c3cc(OC)ccc3OC)C3=C(C(=O)CCC3)C2c2ccc3c(c2)OCO3)cc1 (configuration not stated)	113
O=C(NC1CC1)C1=CCN(C(=O)NC2CCCC2)CC1	106
O=C(Nc1sc2c(c1-c1nc3ccccc3s1)CCCC2)c1ccc(S(=O)(=O)N2CCCCC2)cc1	107
COc1ccc(NS(=O)(=O)c2cc(-c3c(C)noc3NC(C)=O)ccc2C)c(OC)c1	95
Cc1ccc(-c2noc3c(=O)n(CCC(=O)NCc4ccccc4)cnc23)cc1	105
Cc1ccc(C(=O)NC2CCS(=O)(=O)C2)cc1NC(=O)c1nsc2ccccc12 (configuration not stated)	104
CC(C)(C)C1CCc2oc3c(cc(NS(=O)(=O)c4ccc(Cl)c([N+](=O)[O-])c4)c4ccccc43)c2C1 (configuration not stated)	109
COc1cc(/C=C2/C(=N)N3C(c4ccccc4)=CSC3=NC2=O)ccc1OCCOc1ccccc1C	121
COC(=O)C1=C(C)OC(N)=C(C#N)C1c1cccc(Cl)c1 (configuration not stated)	106
CCOC(=O)c1c(C)c(CCC(=O)N2CCOCC2)n(C)c1C	110
CCOC(=O)C1=NN(c2cccc(Cl)c2)C2(S1)c1ccccc1C(c1ccc(Cl)cc1)=NN2c1ccccc1 (configuration not stated)	105
Cc1cc(C2CCCN2C(=O)Nc2ccccc2Br)no1 (configuration not stated)	108
COc1cc(OC)cc(C(=O)Nc2cc(C(=O)N3CCCCC3C)ccc2N2CC3CC(C2)c2cccc(=O)n2C3)c1 (configuration not stated)	102
Cc1nc2sccn2c(=O)c1NC(=O)COc1ccc(F)cc1	100
COc1cc(NC(=O)c2nc(N3CCOCC3)c3oc4ccccc4c3n2)cc(OC)c1	107
Cc1ccc(-c2csc(=Nc3ccccc3)n2CCc2ccccc2)cc1C	100
CN(C)c1nc(N(C)C)nc(N2CC(=O)N(CCBr)C2=O)n1	105
O=S(=O)(c1cc(-c2nnc(C3CCC3)o2)co1)N1CCN(c2ccccn2)CC1	99
CCn1c(=O)c(N2CCN(C(=O)CCc3ccccc3)CC2)nc2ccccc21	101
COc1cccc2cc(-c3csc(NC(=O)CCC(=O)NCc4ccccc4Cl)n3)c(=O)oc12	116
O=C(C1CC1)N1CCCN(Cc2noc(-c3ccccc3)n2)CC1	102
COC(=O)C1=CN(C2CC2)c2cc(N3CCC(C)CC3)c(F)cc2S1(=O)=O	107
Cc1sc(C)c(S(=O)(=O)NCc2ccc3c(c2)OCO3)c1-c1cc(C(F)(F)F)on1	101

Random excerpt: 4 records from the list, in no set order.
SMILES	GIV-Gai inh
CCOC(=O)c1c(C)c(CCC(=O)N2CCOCC2)n(C)c1C	110
CCOC(=O)c1c(NC(=O)c2c(-c3ccccc3Cl)noc2C)sc2c1CCCC2	103
CS(=O)(=O)Nc1ccc(C2(C(=O)N3CCCC3)CCCCC2)cc1	97
COc1cccc(CN2CCCC2c2c(C)noc2C)c1O (configuration not stated)	101

Next compounds:
SMILES	GIV-Gai inh
Cc1cccc(NC(=O)CSc2nc3c(c(-c4ccco4)c2C#N)CCCC3)c1	120
COC(=O)c1cc(C)nc2c1c(=O)nc(SCc1nc(-c3cccc(C)c3)oc1C)n2C1CC1	107
CN(C)c1cc(N2CCCC(NC(=O)NCc3ccco3)C2)ncn1 (configuration not stated)	96
CCSc1nnc2c(n1)[nH]c1ccccc12	108
CCN1C(=O)C2(C(C#N)=C(N)Oc3n[nH]c(-c4ccncc4)c32)c2ccccc21 (configuration not stated)	107
COc1ccc(C(=O)N2CCC(NS(=O)(=O)c3ccc(OC)cc3)CC2)cc1	103
CCOC(=O)C1=NN(c2ccc(C)cc2)C2(S1)c1ccccc1C(c1ccccc1)=NN2c1ccccc1 (configuration not stated)	104
CCCCC(=O)Nc1ccc(N2CCN(CC(=O)NC(C)(C)C)CC2)c(C(=O)O)c1	104
CN1c2ccccc2C(=O)NC12CCN(C(=O)NCCc1ccccc1)CC2	95
Cc1nc(N2CCC(C)CC2)c2c(C)c(C(=O)Nc3ccc(F)cc3)sc2n1	111

Arranged by the number under GIV-Gai inh (falling): some entries from above.
SMILES,GIV-Gai inh
Cc1cccc(NC(=O)CSc2nc3c(c(-c4ccco4)c2C#N)CCCC3)c1,120
Cc1nc(N2CCC(C)CC2)c2c(C)c(C(=O)Nc3ccc(F)cc3)sc2n1,111
CCSc1nnc2c(n1)[nH]c1ccccc12,108
COC(=O)c1cc(C)nc2c1c(=O)nc(SCc1nc(-c3cccc(C)c3)oc1C)n2C1CC1,107
CCCCC(=O)Nc1ccc(N2CCN(CC(=O)NC(C)(C)C)CC2)c(C(=O)O)c1,104
CN(C)c1cc(N2CCCC(NC(=O)NCc3ccco3)C2)ncn1 (configuration not stated),96
CN1c2ccccc2C(=O)NC12CCN(C(=O)NCCc1ccccc1)CC2,95

Among those listed so far, 5 have a furan ring, fused or not.
SMILES	GIV-Gai inh
CC(C)(C)C1CCc2oc3c(cc(NS(=O)(=O)c4ccc(Cl)c([N+](=O)[O-])c4)c4ccccc43)c2C1 (configuration not stated)	109
COc1cc(NC(=O)c2nc(N3CCOCC3)c3oc4ccccc4c3n2)cc(OC)c1	107
O=S(=O)(c1cc(-c2nnc(C3CCC3)o2)co1)N1CCN(c2ccccn2)CC1	99
Cc1cccc(NC(=O)CSc2nc3c(c(-c4ccco4)c2C#N)CCCC3)c1	120
CN(C)c1cc(N2CCCC(NC(=O)NCc3ccco3)C2)ncn1 (configuration not stated)	96

Carrying on.
SMILES	GIV-Gai inh
COc1ccc(OC)c(-c2[nH]ncc2CN2CCCC2c2cc(C)no2)c1 (configuration not stated)	112
COc1ccc(NC(=O)c2ccc(CN3C(=O)C4CCCN4C(=O)c4ccccc43)cc2)cc1F (configuration not stated)	100
C=CCNC(=O)c1ccc(CN2C(=O)C3CCCN3C(=O)c3ccccc32)cc1 (configuration not stated)	102
CC1=C(C(=O)OCCCc2ccccc2)C(c2ccc(Cl)c(Cl)c2)CC(=O)N1 (configuration not stated)	112
CS(=O)(=O)Nc1ccc(-c2noc(-c3ccncc3)n2)cc1	99
CCOC(=O)C1=C(N)SC(C(=O)c2ccccc2)C1c1ccccc1 (configuration not stated)	114
CCN(CC)CCNc1ncnc2onc(-c3ccc(C)cc3)c12	97
COc1ccc(C2C(C(=O)c3ccccc3)N3c4ccccc4C=CC3C2(C#N)C#N)cc1OC (configuration not stated)	125
Cc1cccc(-c2nc3ccc(C(=O)NCC4CCCO4)cc3nc2-c2cccc(C)c2)c1 (configuration not stated)	99
COc1ccc(CCNC(=O)CCCn2c(SCC(=O)n3nc(N)cc3C)nc3ccccc3c2=O)cc1OC	110
COc1ccc(-n2nc(C(=O)NCC3CCCO3)c3ccccc3c2=O)c(OC)c1 (configuration not stated)	99
Cc1ccc(NC(=O)CCc2nc(CSc3nc4ccccc4o3)no2)cc1	104
COc1ccccc1-c1noc(-c2nn(-c3ccc(Cl)cc3)ccc2=O)n1	100
CCOC(=O)c1ccc(Cn2c3cc([N+](=O)[O-])ccc3c3nn4cc(-c5cc(C(C)(C)C)cc6c5CCC6(C)C)nc4nc32)o1	144
C=CCOc1ccc(C2Nc3ccc(C)cc3[C@H]3OCCC[C@@H]23)cc1 (some centres not stated)	105
Cc1cc2c(cc1S(=O)(=O)N(C)CC(=O)N(C)CC1COc3ccccc3O1)OCC(=O)N2 (configuration not stated)	102
Cc1ccc(C2=Nc3ccccc3SC(c3ccc(Br)cc3)C2)cc1 (configuration not stated)	101
CCOC(=O)c1ccccc1NC(=O)c1sc2ncn(CC(=O)Nc3cccc(C(F)(F)F)c3)c(=O)c2c1C	108
COC(=O)CN1C(c2cccc(Cl)c2)=Nc2ccc(Br)cc2C1c1ccccc1 (configuration not stated)	110
COc1ccc(NC(=O)c2nc3nc(-c4ccc(F)cc4)cc(C(F)(F)F)n3n2)cc1	105
CCOC(=O)COc1ccc(/C=C2\C(=O)NC(=O)N(c3cc(C)cc(C)c3)C2=O)cc1OC	108
CN(CCc1noc(-c2cc3cc(Cl)ccc3[nH]2)n1)C(=O)c1ccoc1	96
Cc1ccc(S(=O)(=O)N2CCC(c3noc(-c4ccccc4)n3)CC2)cc1F	99
CC1(C)CC(=O)c2cc3c(N)c(C(=O)c4ccc([N+](=O)[O-])cc4)sc3nc2C1	104
COc1ccc2nc(SCC(=O)Nc3ccc(NC(C)=O)cc3)n(S(=O)(=O)c3ccc(Br)cc3)c2c1	118
CN(CCOC(=O)Cn1cnc2ccccc2c1=O)C1=NS(=O)(=O)c2ccccc21	107
CCOc1ccc(NC2=CC(c3ccc(C(C)(C)C)cc3)N(c3ccc(OCC)cc3)C2=O)cc1 (configuration not stated)	106
CC(C)CC(=O)N1CCN(c2cc(=O)n(C)c(=O)n2C)CC1	110
O=C(CC(SCc1ccco1)c1ccc(C(F)(F)F)cc1)c1cccs1 (configuration not stated)	108
Cc1ncc([N+](=O)[O-])n1S(=O)(=O)c1ccc(F)cc1	113
Cc1ccc(Nc2nc3nonc3n3c(CC(N)=O)nnc23)cc1	102
CCCCNC(=O)c1ccc2c(c1)nc1n2CCOC1	100
Cc1ccc(S(=O)(=O)c2nc(C)oc2NCc2ccccc2)cc1	101
Cc1cc(C)cc(N2C(=O)CS(=O)(=O)C2c2cccc(Br)c2)c1 (configuration not stated)	109
COC(=O)c1cc(Nc2nc(C)nc3sc(C)c(C)c23)cc(C(=O)OC)c1	101
CN(C)CCCNc1nc(-c2ccc(Cl)cc2)nc2ccccc12	99
O=S(=O)(NC1CCCCCCC1)c1ccc(-c2cnc(C3CCC3)o2)s1	103
O=C(c1ccc(Cl)cc1)N1N=C(C(F)(F)F)CC1(O)c1ccncc1 (configuration not stated)	108
O=C(c1cccc(CN2C(=O)C3CCCN3C(=O)c3ccccc32)c1)N1CCOCC1 (configuration not stated)	102
O=S(=O)(NCc1nc2cccnc2n1C1CC1)c1ccccc1F	104
N#Cc1ccc(Oc2ccc(N3C(=O)C4CCCCC4C3=O)cc2)c([N+](=O)[O-])c1 (configuration not stated)	122
CCn1c(CN2CCN(S(=O)(=O)c3ccc(C(C)C)cc3)CC2)nc2cc(C(=O)N(C)C)ccc21	100
Cc1ccccc1-n1c(=S)sc2c1nc(SCc1nc3ccccc3[nH]1)n1c3ccccc3nc21	114
Cc1cc(C(F)(F)F)c(C#N)c(SCC(=O)NC(C)C23CC4CC(CC(C4)C2)C3)n1 (configuration not stated)	107
CCc1cc(C2CCCN2S(=O)(=O)c2c(C)cc(C)cc2C)on1 (configuration not stated)	102
Cc1cc(C)c(NC(=O)Cn2c3ccccc3n3c(=O)cc(-c4ccccc4)nc23)c(C)c1	105
CCCCn1c(=O)nc2n(-c3cccc(Cl)c3)c3ccccc3cc-2c1=O	110
O=c1n(Cc2cccc(Br)c2)nc2c(S(=O)(=O)N3CCc4ccccc4C3)cccn12	105
CCOC(=O)c1ccc(S(=O)(=O)Nc2c(C)nc3nc(C)[nH]n3c2=O)cc1	100
Cc1ccc(NC(=O)C2C3CCCC2C3c2ccccc2)cc1C (configuration not stated)	101
Continuation.
SMILES	GIV-Gai inh
Cn1c(=O)c2c(nc3n(-c4ccc(C#N)cc4)c(-c4ccccc4)cn23)n(C)c1=O	109
O=C1COc2ccccc2N1Cc1nc(-c2ccc3c(c2)Sc2ccccc2C(=O)N3C2CC2)no1	103
CC1(C)CC(NC(=O)CC#N)CC(C)(C)N1	102
CC(C)Sc1nnc2c3ccccc3n(C)c2n1	106
Cc1ccc(Cl)cc1NC1=NC(=S)N(C2CCCCC2)C12CCCCC2	109
O=C1CC(c2c(F)cccc2Cl)c2ccc3ccccc3c2N1 (configuration not stated)	105
Cc1ccc(-c2nc(C3CCN(C(=O)c4cc5ccccc5[nH]4)CC3)no2)cc1	106
CSc1ccc(C2CC(=O)Nc3c2cc(Br)c2ccccc32)cc1 (configuration not stated)	103
COC(=O)c1ccc2c(=O)n(CCc3ccc(S(N)(=O)=O)cc3)c(SCc3ccc(Cl)cc3)nc2c1	111
